BJeLR lethal = MLPCN primary cell-based screen for lethality selective to Ras in HRASV12 cells. BJeLR (HRASV12) viability, CellTiter-Glo ATP luminescence, 48 h; reference of the scale not given here. inhibition, % (test concentration not listed). hit rate 0.17% among 300,000. AID 1554, 2009;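 active = replicate mean above 50%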;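 also: 50 nL library stock added to about 25 µL; numbers are from one replicate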
Autofluor counter = counter-screen for toxin protease inhibitors: compound fluorescence; compound autofluorescence counterscreen, microsphere flow cytometry; stronger effect = higher value; hit rate 3.1% among 360,000; fluorescence intensity (test concentration not listed); AID 624483;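 active = at least 3 SD above the mean of all compounds, about 16000 in these data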;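 also: 100 nL of 1 mM stock went into each well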
Mtb hypoxia rep = PubChem AID 1159583; M. tuberculosis hypoxia-regulated fluorescent reporter, fluorescence; fluorescence inhibition, % (test concentration not listed); hit rate 0.1% among 300,000;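 active = 35 to 45% if threefold the growth effect, above 45% if 1.5-fold the growth effect; inactive = the rest, general growth blockers included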;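 also: wells of about 50 µL received 100 nL stock; 0% = vehicle wells and 100% = reference inhibitor wells; whole bacteria with a GFP reporter of the hypoxia response; strong numbers were not always called active; many hits fall short of the cut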
Sa ugtP lethal = growth inhibition of ugtP-null S. aureus, primary screen, RN4220 ugtP deletion, OD600. growth inhibition, % (test concentration not listed). hit rate 0.54% among 330,000. AID 1259309, 2017. 16 h; some inactives read as strong as hits;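 active = z-score under -3 and OD600 up to 0.15 on both plates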;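 also: plate controls were untreated wells for no effect and antibiotic for full effect; wells of about 80 µL received 100 nL stock; the first replicate is given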
PrP UTR inh = inhibition of PrP 5' UTR reporter expression | cell-based PrP 5' UTR mRNA reporter, plate reader | inhibition, % (no concentration beside the values) | hit rate 0.35% among 340,000 | AID 488862, 2010;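 active = every replicate at 50% or more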;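 also: 0 = median of the neutral control wells; tested in H4 reporter cells; numbers are from one replicate; inactives centre near -14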
RN4220 kill = growth inhibition of S. aureus RN4220, primary screen, OD600; inhibition, % (concentration not given with the values); 16 h; hit rate 0.33% among 330,000;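 active = z-score of -3 or lower and OD600 up to 0.18 on both plates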;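 also: plate controls were untreated cells for no effect and reference antibiotic for full effect; stock transfer was 100 nL into about 80 µL; one replicate is shown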
Mtb hypoxia rep growth = second read-out of Mtb hypoxia rep, no call of its own (marks repeat the call); growth inhibition, %; measured here: M. tuberculosis growth (absorbance);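 0% = vehicle and 100% = reference antibiotic; read after six days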
Starred values were filed as active, the others as inactive; / = no result given. This is a random part of the collection, and some 4.1% of all compounds hit somewhere here.

SMILES	BJeLR lethal	Autofluor counter	Mtb hypoxia rep	Mtb hypoxia rep growth	Sa ugtP lethal	PrP UTR inh	RN4220 kill
COc1cccc(C(=O)Nc2c(F)c(F)c(F)c(F)c2F)c1	-15	20193*	6	8	-8	-18	8.6
CC1CC1C(=O)Nc1ccc(-c2ccccc2)cc1 (stereo not given)	-4	2203	7	11	12	-93	21
COc1cccc(-c2cc(C(F)(F)F)nc(N3CCOCC3)n2)c1	0	3152	14	2	55	-5	5.0
O=C(CN1C(=O)c2ccccc2C1=O)Nc1cccc(S(=O)(=O)Nc2ccccc2Cl)c1	2	2162	/	/	/	-11	/
Cc1ccc(C(=O)Nc2nnc(Cc3ccccc3)s2)cc1	-2	3139	2	1	3	-26	1.7
CCOC(=O)c1ccc(N2C(=O)CC(N(C)Cc3ccccc3)C2=O)cc1 (stereo not given)	1	3319	3	2	-2	-22	6.2
CC(C)(C)n1cnc2cc(NC(=O)c3ccc(Cl)cc3)ccc21	-8	3725	10	9	13	-85	3.2
CCOC(=O)c1cc(C(=O)OCC)c2cc(Br)ccc2n1	12	11838	3	1	6	/	11
Cc1ccc(C(=O)N/N=C\c2c(C)nn(-c3ccccc3)c2Cl)cn1	0	1988	/	/	/	-4	/
CCc1ccc(NC2=NC(C(=O)NC3CCCCC3)CC(=O)N2)cc1 (stereo not given)	4	20212*	1	7	0	-2	5.2
CC(C)Nc1ncnc2c1cnn2Cc1ccc(Cl)cc1	9	3922	15	0	13	-18	-1.6
CC1Sc2ccc(Cl)cc2-c2nc(N)ncc21 (stereo not given)	1	2087	2	2	-10	-9	0.6
Cc1cc2ccccc2c(=O)n1CC(=O)NCC(=O)N1CCN(c2cccc(Cl)c2)CC1	-4	20243*	3	4	-7	-10	0.8
c1ccc(CSc2ncnc3c2cnn3-c2ccccc2)cc1	12	2505	-13	-2	1	-21	0.2
CSC1=NCCN1S(=O)(=O)c1ccc(F)cc1	-1	2279	7	8	5	-14	0.8
O=C(NC(Cc1ccccc1)C(=O)O)/C(=C/c1ccc([N+](=O)[O-])cc1)NC(=O)c1ccccc1 (stereo not given)	-1	5590	0	10	12	1	0.6
O=C(OCc1nc2ccccc2s1)c1cc2ccccc2oc1=O	1	/	7	2	0	/	3.3
COC(=O)C1CCN(C(=O)COC(=O)Cn2cnnn2)CC1	10	/	4	1	11	/	-0.7
COc1cccc(-n2c(-c3ccco3)nc3nc4ccccc4nc32)c1	15	2788	-2	-7	-4	-4	19
COC(=O)c1nnn(-c2ccc(Cl)c(Cl)c2)c1C(=O)OC	1	4564	-9	8	-11	-27	0.9
CCN(Cc1ccccc1)C(=O)CN1C(=O)c2ccccc2C1=O	-6	3729	-9	7	4	-11	0.2
COc1ccc(S(=O)(=O)Cc2ccc(C(=O)NCc3ccccc3OC)o2)cc1	5	4933	-8	-8	-5	-5	-6.6
COc1ccccc1OCCCCCNCCO	0	7704	-2	-11	3	-4	1.2
COc1cc([N+](=O)[O-])ccc1NC(=O)C1CCCN(S(C)(=O)=O)C1 (stereo not given)	/	3990	10	13	4	-32	6.1
CC1(NC(=O)c2cc(S(=O)(=O)N3CCCCC3)ccc2Cl)CCS(=O)(=O)C1 (stereo not given)	5	24171*	-4	-2	-8	-14	-4.6
COC(=O)c1ccsc1NC(=O)CCS(=O)(=O)c1ccccc1	9	6391	6	4	1	-9	2.7
O=C1CCCC(O)=C1Sc1ccccc1C(=O)O	1	2233	5	-1	10	-15	5.4
COc1ccc(S(=O)(=O)Cc2ccc(C(=O)N3CCN(c4cccc(C)c4C)CC3)o2)cc1	40	5877	/	/	9	-6	7.5
CCCSC(=O)N(CC)CC(=O)Nc1c(CC)cccc1CC	2	3276	17	4	2	-19	9.5
CC1CCCN(CC(=O)Nc2ccc(S(=O)(=O)N3CCCCC3)cc2)C1 (stereo not given)	8	8667	0	5	-4	4	-5.4

Profiles, quoted from the list:
`COc1ccc(S(=O)(=O)Cc2ccc(C(=O)NCc3ccccc3OC)o2)cc1` reads BJeLR lethal: 5; Autofluor counter: 4933; Mtb hypoxia rep: -8; Mtb hypoxia rep growth: -8; Sa ugtP lethal: -5; PrP UTR inh: -5; RN4220 kill: -6.6
`COC(=O)c1nnn(-c2ccc(Cl)c(Cl)c2)c1C(=O)OC` reads BJeLR lethal: 1; Autofluor counter: 4564; Mtb hypoxia rep: -9; Mtb hypoxia rep growth: 8; Sa ugtP lethal: -11; PrP UTR inh: -27; RN4220 kill: 0.9

Following part
SMILES	BJeLR lethal	Autofluor counter	Mtb hypoxia rep	Mtb hypoxia rep growth	Sa ugtP lethal	PrP UTR inh	RN4220 kill
COc1ccc(CNC(=O)C(C)Sc2ccc(C)cc2)cc1 (stereo not given)	13	3484	11	2	2	-3	1.2
c1ccc2cc3c(NCCN4CCOCC4)ccnc3cc2c1	/	2458	17	5	-7	-49	2.3
COC(=O)c1ccc(CNC(=O)COC(=O)CC23CC4CC(CC(Br)(C4)C2)C3)cc1	-1	2447	8	7	3	0	2.1
CC(CC(=O)NC1CCCC1)c1ccccc1 (stereo not given)	-12	3858	12	11	-5	-15	2.3
O=C(CSc1nc2ccccc2s1)NNC(=O)Nc1ccc(Cl)c(Cl)c1	11	3545	/	/	-4	10	-9.8
CCCCNC(=O)n1c(SC)nc2ccccc21	1	4490	/	/	7	-16	-0.4
c1ccn(-c2ccc(-c3ccn[nH]3)cc2)c1	4	4460	13	6	-1	-75	6.1
O=C(Nc1ccc2c(c1)OCCO2)c1c(F)c(F)c(F)c(F)c1F	-1	3153	16	12	10	-18	5.8
Cc1c(C(=O)O)c(C(=O)O)c2n1CCS2	-6	4064	8	-3	3	0	2.0
Cc1ccc(C(=O)CCNc2ccc(Cl)cc2)o1	2	2813	2	11	-5	-43	1.6
Cc1ccc(C(=O)N/C(=C/c2cccs2)C(=O)N2CCCCC2)cc1	1	2508	12	11	4	-26	4.2
O=S(=O)(c1ccc(Br)c2ccccc12)N1CCCC1	6	4064	19	4	12	-9	4.3
CS(=O)(=O)Nc1ccc(OCc2ccccc2)cc1	-11	24301*	10	6	2	-37	1.9
C/C(=N\NC(=O)OC(C)(C)C)c1ccc[nH]1	-1	2674	/	/	/	-72	/
COCCCNC(=O)c1cc2c(=O)n3cccc(C)c3nc2s1	-1	3827	3	-2	10	-26	-1.3
Cc1c(NC(=O)Cn2nc(C(=O)O)c3ccccc3c2=O)c(=O)n(-c2ccccc2)n1C	5	2873	5	0	-3	-15	-13
COc1ccc(OCC(=O)OCC(=O)N2CC(=O)Nc3ccccc32)cc1	-3	4052	-3	1	-2	-5	1.6
Cc1cc(C(=O)N2CCN(S(=O)(=O)c3ccccc3F)CC2)c(C)o1	8	5084	7	3	-2	-19	3.9
CC(Cc1ccccc1)=NNC(=O)CNC(=O)c1ccc(F)cc1	/	/	0	-1	2	/	1.5
O=C(Cc1nc(-c2ccc([N+](=O)[O-])cc2)cs1)Nc1ccccc1	-5	21221*	-2	-2	2	5	-2.6
CCC(=O)Nc1nnc(SCc2ccccc2F)s1	/	3801	9	2	16	-34	0.8
Oc1c(C=NCc2ccccc2)sc2ccccc12	3	4312	6	0	3	-66	5.9
Cc1cc(C)cc(N(C(C)C(=O)Nc2c(C)n(C)n(-c3ccccc3)c2=O)S(C)(=O)=O)c1 (stereo not given)	-1	4739	/	/	-2	-27	-0.4
COc1ccc(/C(O)=C2\C(=O)C(=O)N(c3cc(C)on3)C2c2ccccc2OC)cc1C (stereo not given)	-1	3486	/	/	4	-6	7.6
COc1cc(OC)cc(C(=O)N[C@H](C(=O)OCC(=O)c2ccc(F)cc2)C(C)C)c1	/	3173	-7	5	3	-7	-5.5
COc1cccc(C(=O)OC(C)CN2CCCC2)c1 (stereo not given)	1	5897	/	/	5	2	3.4
CC1=CC(C)[C@H](/C=N/n2c(=O)[nH]c3c([nH]c4ccc(C)cc43)c2=O)C(C)C1 (stereo not given in full)	4	4041	/	/	/	-16	/
CCOc1cc(C(=O)Nc2cc(F)ccc2C)ccc1OCC(=O)N1CCOCC1	/	3840	-11	3	-4	2	-1.6
CCOC(=O)c1cc(-c2ccc(OC)cc2)nc2c1c(C)nn2CCC#N	-9	20850*	7	6	-14	-29	4.3
O=C(NCC(F)(F)F)N1CCOCC1	4	2104	/	/	0	-16	0.8

Some of the entries so far, as a markdown table.
| smiles | BJeLR lethal | Autofluor counter | Mtb hypoxia rep | Mtb hypoxia rep growth | Sa ugtP lethal | PrP UTR inh | RN4220 kill |
| --- | --- | --- | --- | --- | --- | --- | --- |
| Cc1ccc(C(=O)N/C(=C/c2cccs2)C(=O)N2CCCCC2)cc1 | 1 | 2508 | 12 | 11 | 4 | -26 | 4.2 |
| O=S(=O)(c1ccc(Br)c2ccccc12)N1CCCC1 | 6 | 4064 | 19 | 4 | 12 | -9 | 4.3 |
| CS(=O)(=O)Nc1ccc(OCc2ccccc2)cc1 | -11 | 24301* | 10 | 6 | 2 | -37 | 1.9 |
| C/C(=N\NC(=O)OC(C)(C)C)c1ccc[nH]1 | -1 | 2674 | / | / | / | -72 | / |
| COCCCNC(=O)c1cc2c(=O)n3cccc(C)c3nc2s1 | -1 | 3827 | 3 | -2 | 10 | -26 | -1.3 |
| Cc1c(NC(=O)Cn2nc(C(=O)O)c3ccccc3c2=O)c(=O)n(-c2ccccc2)n1C | 5 | 2873 | 5 | 0 | -3 | -15 | -13 |
| COc1ccc(OCC(=O)OCC(=O)N2CC(=O)Nc3ccccc32)cc1 | -3 | 4052 | -3 | 1 | -2 | -5 | 1.6 |
| Cc1cc(C(=O)N2CCN(S(=O)(=O)c3ccccc3F)CC2)c(C)o1 | 8 | 5084 | 7 | 3 | -2 | -19 | 3.9 |
| CC(Cc1ccccc1)=NNC(=O)CNC(=O)c1ccc(F)cc1 | / | / | 0 | -1 | 2 | / | 1.5 |
| O=C(Cc1nc(-c2ccc([N+](=O)[O-])cc2)cs1)Nc1ccccc1 | -5 | 21221* | -2 | -2 | 2 | 5 | -2.6 |
| CCC(=O)Nc1nnc(SCc2ccccc2F)s1 | / | 3801 | 9 | 2 | 16 | -34 | 0.8 |
| Oc1c(C=NCc2ccccc2)sc2ccccc12 | 3 | 4312 | 6 | 0 | 3 | -66 | 5.9 |
| Cc1cc(C)cc(N(C(C)C(=O)Nc2c(C)n(C)n(-c3ccccc3)c2=O)S(C)(=O)=O)c1 (stereo not given) | -1 | 4739 | / | / | -2 | -27 | -0.4 |
| COc1ccc(/C(O)=C2\C(=O)C(=O)N(c3cc(C)on3)C2c2ccccc2OC)cc1C (stereo not given) | -1 | 3486 | / | / | 4 | -6 | 7.6 |
| COc1cc(OC)cc(C(=O)N[C@H](C(=O)OCC(=O)c2ccc(F)cc2)C(C)C)c1 | / | 3173 | -7 | 5 | 3 | -7 | -5.5 |
| COc1cccc(C(=O)OC(C)CN2CCCC2)c1 (stereo not given) | 1 | 5897 | / | / | 5 | 2 | 3.4 |
| CC1=CC(C)[C@H](/C=N/n2c(=O)[nH]c3c([nH]c4ccc(C)cc43)c2=O)C(C)C1 (stereo not given in full) | 4 | 4041 | / | / | / | -16 | / |
| CCOc1cc(C(=O)Nc2cc(F)ccc2C)ccc1OCC(=O)N1CCOCC1 | / | 3840 | -11 | 3 | -4 | 2 | -1.6 |

More entries follow.
SMILES	BJeLR lethal	Autofluor counter	Mtb hypoxia rep	Mtb hypoxia rep growth	Sa ugtP lethal	PrP UTR inh	RN4220 kill
CCOC(=O)c1c(C)oc2ccc(NS(=O)(=O)c3ccc(C(=O)O)cc3)cc12	-8	3475	4	-7	7	-22	3.6
O=C(COc1ccccc1F)Nc1ccccc1C(=O)NC1CC1	/	3935	-4	10	-1	8	3.5
CC(Oc1ccccc1)C(=O)Nc1cccc([N+](=O)[O-])c1 (stereo not given)	7	4103	9	-1	-7	-13	-2.9
CCOC(=O)c1c(-c2ccc(OC)c(OC)c2)csc1NC(=O)C1CCCO1 (stereo not given)	2	4399	1	9	7	-2	0.6
O=C(NCCCN1CCOCC1)c1cc(-c2ccccc2F)no1	3	6654	-5	-5	0	-12	3.1
O=C(Cn1c(=O)c2cccn2c2cccnc21)NCCCN1CCN(c2ccc(F)cc2)CC1	-1	7217	/	/	/	-3	/
CC(C)c1nnc(NC(=O)CCC(=O)NCC2CCCO2)s1 (stereo not given)	2	4630	/	/	1	-14	-3.1
CC(=O)OCC(=O)C1(O)CCC2C3CCC4=CC(=O)CCC4(C)C3C(O)CC21C (stereo not given)	/	6342	8	5	3	-2	7.5
COc1ccc(Cc2c(N)nc(N)nc2N)cc1	2	3424	1	-5	16	-21	46

Assay outcomes from PubChem.
